H5N1 CPE – MDCK cell protection from H5N1 avian flu; cytopathic effect, luminescence, 72 h; active compounds read high; no value below 0 was filed and about half of the inactive calls have no number; reference of the scale not given here; inhibition, % at 50 µM; actives 0.07% (n = 96,000); AID 740; in the data active = inhibition above about 25%
Starred values were filed as active, the others as inactive; i = inactive. Not all compounds are listed; rates above refer to the full screens.

SMILES | H5N1 CPE
Cc1cc(C(=O)Nc2nnc(C(F)(F)F)s2)no1 | 1.4
COc1ccc(N(C)S(=O)(=O)c2cccc(C(=O)NC3=NCCS3)c2)cc1 | 1.4
COc1cc(NC(=O)c2ccco2)c(OC)cc1NC(=O)CCC(=O)Nc1cccc(C)c1C | i
Cc1ccc(NC(=O)c2cc(-c3ccc(C)o3)nc3ccccc23)cc1 | i
C=CCN1CCN(c2ccncc2S(=O)(=O)N2CCOCC2)CC1 | i
CCN(CC)C(=O)CN1CCN(c2ncccn2)CC1 | i
CCNC(=S)N/N=C1\C(=O)c2cccc3cccc1c23 | 0.1
Cc1c(C(=O)Nc2ccc(N3CCOCC3)cc2)oc2ccccc12 | 0.7
CCC(=O)N1CCc2cc(S(=O)(=O)NCCC(=O)N3CCc4ccccc4C3)ccc21 | 1.0
CCOC(=O)C1=C(c2ccccc2)NC(SCC)=C(C#N)C1c1cccnc1 (stereo unspecified) | 1.6
Cc1nc(SCC(=O)NCc2ccccc2)c2c(=O)n(C)c(=O)n(C)c2n1 | 1.1
C=CCc1c(C)nc(SCCC)[nH]c1=O | i
O=C(N=C1SCC(=O)N1c1ccccc1)c1ccco1 | 0.3
Cc1ccc2[nH]c(SCC(=O)N3CCOCC3)nc2c1C | i
COc1ccc(-n2nc(C(=O)O)nc2-c2ccccc2)cc1 | i
NC(=O)CC12CC3CC(C1)CC(CC(N)=O)(C3)C2 | 0.2
CCOC(=O)C1=C(O)/C(=C\c2cccc(OC)c2)N=C1C | i
CC(C)CCNC(=O)NC(=O)CSc1nnc(-c2ccccc2F)n1N | i
CCOC(=O)Cc1csc(NC(=O)CSc2nnc(-c3ccc(F)cc3)o2)n1 | i
COc1ccc(OCCSc2nnnn2C2CCCCC2)cc1 | i
O=C(O)C1CC=CCC1C(=O)c1ccccc1 (stereo unspecified) | i
COc1ccc(C(C)NC(=O)c2ccccc2)cc1 (stereo unspecified) | 0.5
O=C(CSc1nnc(CCc2nc3ccccc3[nH]2)n1-c1ccccc1)NCc1ccco1 | 1.1
CC(=O)Cc1nsc(NC(=O)c2ccc(-c3ccc(Cl)cc3Cl)o2)n1 | i
O=C1CC(c2ccccc2)CN1C(=O)c1ccccc1 (stereo unspecified) | i
Cc1cc(OC(=O)c2cc(Cl)nc3ccccc23)ccc1Cl | 0.3
CCCCC1CC1C(=O)Nc1ccc(OC)c(OC)c1 (stereo unspecified) | i
CC(C)C(=O)N(Cc1ccccc1)c1ccccn1 | 0.7
O=C(COc1ccccc1Cl)NC(=O)NC1CCCC1 | i
COc1ccc(-c2nc3scc(-c4ccccc4)n3n2)cc1 | 1.4
O=C(Cn1c(=O)n(CC2CCCO2)c(=O)c2ccccc21)N1CCN(c2ccccc2)CC1 (stereo unspecified) | 1.4
CCOC(=O)Cn1c(C)cc(=O)c2ccccc21 | i
S=C1SCN(Cc2ccccn2)CN1Cc1ccco1 | 2.7
Cc1cc(C)cc(C(=O)O/N=C(\N)c2ccc(Br)cc2)c1 | i
Cc1cc(N2CCN(c3ccccc3)CC2)nc(-c2ccccc2O)n1 | i
C=C(C)CSc1nnc([C@H](CCSC)NC(=O)OC(C)(C)C)o1 | 0.4
CCn1c(=NC(=O)CSC(C)=O)sc2cc(OC)ccc21 | i
CSc1nc2oc3c(c2c2nncn12)CC(C)(C)SC3 | 11
c1ccc(OCCSc2nc3ccccc3o2)cc1 | i
Cc1cc2[nH]ncc2cc1NC(=S)NC(=O)c1ccccc1 | 0.8
COC(=O)c1ccccc1NC(=O)c1ccc(COc2ccc3c(c2)CCC3)cc1 | i
CCC(=O)NS(=O)(=O)c1cccnc1Nc1ccc(Cl)cc1 | 3.7
O=S(=O)(NCc1ccc2c(c1)OCO2)c1cnc[nH]1 | 0.3
Cc1ccc(-c2nn(CC(=O)NCC3CCCO3)c(=O)c3ccccc23)cc1 (stereo unspecified) | 0.1
O=C(COc1ccccc1)N1CCN(S(=O)(=O)Cc2ccccc2)CC1 | 0.2
CCOC(=O)N1CC=C2C(C#N)=C(N)C(C#N)(C#N)[C@H](c3ccc(OC(C)C)c(OCC)c3)[C@H]2C1 | 1.6
COc1ccc(-c2nc(Cn3c(SCc4ccc(F)cc4)nc4ccncc43)c(C)o2)cc1OC | i
O=C1CC(C(=O)NC2CCCCC2)C(c2ccccc2)O1 (stereo unspecified) | 0.6
CCOC(=O)C1CCN(C(=O)c2c(-c3c(F)cccc3Cl)noc2C)CC1 | 0.9
Cc1ccc(CN2C(=O)c3ccccc3C2C(=O)NCc2cccnc2)cc1 (stereo unspecified) | 0.3

Continuation.
SMILES | H5N1 CPE
COc1ccc(C2=NOC(CN3C(=O)c4ccccc4S3(=O)=O)C2)cc1 (stereo unspecified) | i
O=C(O)COc1nsnc1N1CCOCC1 | 0.4
CC1(c2ccncc2)Nc2ccccc2-c2nc3ccccc3n21 (stereo unspecified) | 1.6
Cc1c(C(=O)O)nn(-c2ccccc2)c(=O)c1C#N | 0.8
CSCC[C@H](NC(=O)OC(C)(C)C)c1nnc(SCC(=O)Nc2c(C)cccc2C)o1 | 0.0
CCOc1ccc(Cl)cc1S(=O)(=O)n1cnc2cc(C)c(C)cc21 | 1.0
O=C(CSc1nc2ccccc2c(=O)n1-c1ccccc1)N1CCN(CCO)CC1 | i
CC(C)(C)NC(=O)C1N(c2cccnc2)C(=O)C2C(C(=O)Nc3ccccc3F)C3(C)C=CC21O3 (stereo unspecified) | i
CN1C(=O)/C(=C2\SC(=S)N(C(CCC(=O)O)C(=O)O)C2=O)c2ccccc21 (stereo unspecified) | 0.3
CCN(CC)CCNc1nc(-c2ccccc2)c2c(c1C#N)CC(C)(C)OC2 | i

Copied from the entries so far for reference:
SMILES | H5N1 CPE
Cc1c(C(=O)O)nn(-c2ccccc2)c(=O)c1C#N | 0.8
CSCC[C@H](NC(=O)OC(C)(C)C)c1nnc(SCC(=O)Nc2c(C)cccc2C)o1 | 0.0
CCOc1ccc(Cl)cc1S(=O)(=O)n1cnc2cc(C)c(C)cc21 | 1.0
O=C(CSc1nc2ccccc2c(=O)n1-c1ccccc1)N1CCN(CCO)CC1 | i
CC(C)(C)NC(=O)C1N(c2cccnc2)C(=O)C2C(C(=O)Nc3ccccc3F)C3(C)C=CC21O3 (stereo unspecified) | i
CN1C(=O)/C(=C2\SC(=S)N(C(CCC(=O)O)C(=O)O)C2=O)c2ccccc21 (stereo unspecified) | 0.3
CCN(CC)CCNc1nc(-c2ccccc2)c2c(c1C#N)CC(C)(C)OC2 | i

(further entries)
SMILES | H5N1 CPE
COC(=O)c1nn(C23CC4CC(CC(C4)C2)C3)c2c1C(=O)N(c1ccc(Br)cc1)C2=O | 1.5
COc1cc2c(cc1OC)C(c1ccc(-c3ccc(Cl)c(Cl)c3)o1)=NCC2 | i
N#Cc1c(SCc2ccccc2)nc(N2CCOCC2)c2c1CCCC2 | 0.7
COc1ccccc1N(O)C1CC(=O)N(c2ccc(F)cc2)C1=O (stereo unspecified) | i
CCCCc1nc(N2CCNCC2)c(C#N)c2c1CSC(C)(C)C2 | i
OC12CCCCC1C(c1ccc3c(c1)OCO3)N(Cc1ccccc1F)CC2 (stereo unspecified) | 0.5
Oc1ccc(/C=N/NC(=S)NCC2CCCO2)cc1 (stereo unspecified) | 2.4
C=CCN1/C(=C(\C#N)C2=NS(=O)(=O)c3ccccc32)N(C)c2ccccc21 | i
Cc1c(NS(=O)(=O)N2CCCCC2)c(=O)n(-c2ccccc2)n1C | i
CC(C)Cn1c2nc3ccccc3nc2c2c(=O)n(CCN3CCOCC3)cnc21 | 1.0

As entered above:
`O=C(COc1ccccc1)N1CCN(S(=O)(=O)Cc2ccccc2)CC1` – H5N1 CPE = 0.2
`CC(C)Cn1c2nc3ccccc3nc2c2c(=O)n(CCN3CCOCC3)cnc21` – H5N1 CPE = 1.0

Later entries:
SMILES | H5N1 CPE
CCCNC(=O)C1=C(C)C(=O)OC12CCC(C)CC2 (stereo unspecified) | 0.6
Cc1ccc(-c2n[nH]c3c2CCC3)cc1 | 0.8
CC(C)NC1=C(Cl)C(=O)c2ccccc2C1=O | i
NC(=O)CSc1ncc(-c2ccccc2)[nH]1 | i
CCCNC(=O)c1[nH]c(C)c(C(C)=O)c1C | 0.3
CCOC(=O)c1c(CN2CCOCC2)n(-c2ccccc2)c2cc(Br)c(O)c(CN(C)C)c12 | 2.4
CN(C)NC(=S)Nc1ccc2nc(-c3ccccn3)c(-c3ccccn3)nc2c1 | i
C=CCN1C(=O)C(Cc2ccccc2)S/C1=N/N=C/c1cccs1 (stereo unspecified) | 4.2
CC(C)=CCC(C)(C)C1OCCN1C(=O)c1ccccc1 (stereo unspecified) | i
CCOc1cccc(C2c3c(oc4cc(C)c(C)cc4c3=O)C(=O)N2CCCN(C)C)c1 (stereo unspecified) | i
CC(=O)Nc1ccc(-c2nc(C)c(C(C)=O)n2O)cc1 | 0.5
O=c1[nH]c2ccc(S(=O)(=O)N3CCC(Cc4ccccc4)CC3)cc2o1 | 0.5
O=C(N/N=C/c1ccc(O)cc1)c1ccc(COc2cc(Cl)ccc2Cl)o1 | 3.8
COC(=O)c1ccccc1NC(=O)CSCC(=O)Nc1ccccc1OC | i
CN(C)S(=O)(=O)N1CCN(S(=O)(=O)c2ccc(F)cc2)CC1 | i
c1ccc(-c2nn3c(Cn4nnc5ccccc54)nnc3s2)nc1 | 3.6
O=C(Nc1ccn(Cc2c(F)c(F)cc(F)c2F)n1)c1ccc(COc2ccccc2Cl)cc1 | i
CC(=O)NNc1nc(-c2ccccc2)c2cc(Br)ccc2n1 | 0.3
N#Cc1cc2cc3c(cc2nc1SCC(=O)OC1CCCCC1)OCO3 | i
COc1ccc(C2CC(c3cccs3)=NN2c2nc(-c3ccccc3)cs2)cc1OC (stereo unspecified) | i

The final 3 entries of the section above lead into the next.
SMILES | H5N1 CPE
CC(=O)NNc1nc(-c2ccccc2)c2cc(Br)ccc2n1 | 0.3
N#Cc1cc2cc3c(cc2nc1SCC(=O)OC1CCCCC1)OCO3 | i
COc1ccc(C2CC(c3cccs3)=NN2c2nc(-c3ccccc3)cs2)cc1OC (stereo unspecified) | i
O=C(Nc1ccc(F)cc1)c1cccc(NC(=O)C2C3CC4OC(=O)C2C4C3)c1 (stereo unspecified) | 0.1
CS(=O)(=O)N1N=C(c2ccc3nccnc3c2)CC1c1ccccc1 (stereo unspecified) | i
O=C(CSc1nnnn1-c1ccccc1)N1CCc2ccccc21 | i
O=C(CSc1nnc(-c2ccco2)o1)c1ccc(F)c(F)c1 | 2.1
O=C(CN1CCN(c2ccccc2F)CC1)c1c[nH]c2ccc(F)cc12 | i
[O-]C1=N/[N+](=C/c2ccccc2Cl)CC1 | 0.2
O=C(O)C1C2CCC(O2)C1C(=O)NCCC1=CCCCC1 (stereo unspecified) | i
CCCC(CCC)C(=O)Nc1c[nH]c(=O)[nH]c1=O | i
O=c1c2ccccc2nc2n1C1(CCCCC1)Cc1ccccc1-2 | i
Cc1[nH]nc2nc3c(c(OC(=O)c4ccccc4)c12)c(=O)n(C)c(=O)n3C | 1.1
O=C(COc1ccc(F)c(Cl)c1)c1ccc[nH]1 | 1.9
CC(C)C1N=C2c3ccccc3N=C(SCC(=O)c3ccc(O)c(O)c3)N2C1=O (stereo unspecified) | 0.0
COc1ccc(Cc2nnc(SCC(=O)N3CCc4ccccc4C3)o2)cc1 | 0.1
Cc1cc(C)n(C(=O)C(C)N2C(=O)c3ccccc3C2=O)n1 (stereo unspecified) | 0.5
Cc1cc2cc(CNC(=O)NC3CCCCC3)ccc2[nH]1 | 0.1
COc1ccccc1CNC(=O)c1ccc(S(=O)(=O)N(C)C)cc1 | 0.8
CCOC(=O)c1cccc(NC(=O)CN2C(=O)C3C4C=CC(C4)C3C2=O)c1 (stereo unspecified) | i
CCSc1nnc2c(Cl)cc(Cl)cn12 | 0.2
COc1ccc(CCN=C2SCC(=O)N2C)cc1OC | 0.9
CCOc1ccc(C2=Nn3c(nnc3-c3ccc(OC)cc3)SC2)cc1 | i
COc1ccc(Cl)cc1NC(=O)CCc1ccccc1 | i
O=C(CCCc1ccccc1)NCCN1CCOCC1 | 0.1
Cn1nc(CC(=O)NCc2ccc(F)cc2)c2ccccc2c1=O | 1.4
Cc1cc(C)nc(NS(=O)(=O)c2ccc(NC(=O)c3ccc4c(c3)OCO4)cc2)n1 | 0.9
C=CCn1c(SCC(=O)c2cccs2)nc2sc(CC)cc2c1=O | i
CCOC(=O)Cn1cc(C=O)c2ccccc21 | 0.4
CCC(Sc1nnc(-c2ccc(C)c(Cl)c2)n1CC)C(=O)Nc1nccs1 (stereo unspecified) | 1.3
O=C(NCc1ccccc1)c1cnsn1 | 0.1
Oc1ccc2ccccc2c1C=Nc1ccc(N2CCOCC2)cc1 | 1.1
CC(/C=N/Nc1nnc(C)c(=O)[nH]1)=C\c1ccccc1 | i
COc1ccc(/C=N/NC(=O)CSc2nnc(C)n2-c2ccccc2)c(OC)c1OC | 0.6
CCCCn1c(O)c(C(C)=Nc2ccc(C(=O)O)cc2)c(=O)[nH]c1=O | 0.9
CCc1oc2ccccc2c1C(=O)CCN1CCCCC1 | i
COCCCNc1oc(-c2ccccc2F)nc1C#N | 2.0
CC(=O)N1CCc2cc(C(=O)CN3CCN(C(=O)c4ccco4)CC3)ccc21 | 0.2
COc1ccc2[nH]c(=O)c(CN(C(C)=O)C3CCCCC3)cc2c1 | i
c1ccc(CSc2nncn2-c2ccccn2)cc1 | 0.8
O=C(NCc1ccco1)C1CCC(CNS(=O)(=O)c2cccc3cccnc23)CC1 (stereo unspecified) | 0.9
COC(=O)CCC(=O)Nc1ccc(NC(C)=O)cc1 | i
N#C/C(C(=O)N1CCOCC1)=C1\Nc2ccccc2S1 | 0.1
COc1ccc(CCNC(=O)c2noc3c2CCCC3)cc1OC | i
O=C(c1ccccc1)c1ccc(N2CCNCC2)cc1 | i
CCOC(=O)NC(CC(=O)O)c1ccc(OCC)cc1 (stereo unspecified) | i
CC1(C)CC(=O)c2sc(NS(C)(=O)=O)nc2C1 | 0.5

Assay outcomes from PubChem.
